Screens (PubChem BioAssay)
Mtb bLac sens: beta-lactam sensitization of Mtb H37Rv. M. tuberculosis H37Rv growth with meropenem, percent inhibition; hits of this screen are not shown here. inhibition, % at 25 µM. 330,000 compounds, 0.27% hits;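 active = about 74% or more and at least 40 points above the plate without the antibiotic, then above 30% in a dose series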;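 also: growth measured after seven days incubation then overnight dye step; 0% = bacteria only wells and 100% = bacteria with antibiotic; twin plates without the antibiotic show which effects depend on it; some results filed as inactive read as strong as hits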
Arbovirus inh: blocks arbovirus infection. arbovirus infection cell-based antiviral screen. inhibition, % at 10 µM. 200,000 compounds, 0.37% hits;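 active = inhibition from about 30%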;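 also: bluetongue infection of BSR cells; cell survival read as ATP light after 72 h; 0% = infected wells without compound and 100% = uninfected wells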
YopH inh: blocks Yersinia enterocolitica YopH tyrosine phosphatase | fluorescence Ex485/Em525 | inhibition, %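 (about 10 µM by stock and volumes)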 | 140,000 compounds, 0.16% hits | AID 898;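 active = inhibition of 50% or more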;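 also: controls were vehicle for no effect and minimum signal wells for full effect; inactives centre near -20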
RecA splice inh: blocks M. tuberculosis RecA intein splicing; P9WHJ3; cell-free RecA intein splicing, fluorescence; inhibition, %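 (about 9 µM by stock and volumes)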; 290,000 compounds, 0.75% hits; AID 2221; in the data active = inhibition above about 30%;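 also: 0% = vehicle wells and 100% = reference inhibitor control wells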
Target sequence (P9WHJ3 whole entry, looked up, canonical isoform): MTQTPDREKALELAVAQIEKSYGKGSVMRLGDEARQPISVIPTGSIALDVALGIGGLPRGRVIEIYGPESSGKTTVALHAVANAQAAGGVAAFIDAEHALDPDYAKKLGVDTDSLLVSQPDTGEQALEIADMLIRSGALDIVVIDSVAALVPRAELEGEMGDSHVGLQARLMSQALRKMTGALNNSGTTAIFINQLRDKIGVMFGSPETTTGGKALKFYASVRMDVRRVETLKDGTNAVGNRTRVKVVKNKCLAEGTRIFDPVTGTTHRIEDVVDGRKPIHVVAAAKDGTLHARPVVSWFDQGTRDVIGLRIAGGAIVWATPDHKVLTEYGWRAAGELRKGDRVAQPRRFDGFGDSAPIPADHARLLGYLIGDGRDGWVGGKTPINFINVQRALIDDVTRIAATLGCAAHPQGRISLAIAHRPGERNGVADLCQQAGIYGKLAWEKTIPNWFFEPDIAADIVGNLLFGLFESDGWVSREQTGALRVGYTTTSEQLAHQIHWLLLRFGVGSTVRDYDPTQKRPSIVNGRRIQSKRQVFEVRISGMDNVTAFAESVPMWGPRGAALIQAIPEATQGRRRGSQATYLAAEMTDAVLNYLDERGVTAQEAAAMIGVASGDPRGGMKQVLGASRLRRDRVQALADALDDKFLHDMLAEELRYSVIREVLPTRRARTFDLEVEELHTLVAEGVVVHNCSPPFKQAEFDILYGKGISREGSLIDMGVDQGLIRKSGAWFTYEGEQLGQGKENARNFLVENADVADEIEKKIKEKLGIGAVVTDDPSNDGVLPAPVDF
Mtb H37Rv: M. tuberculosis H37Rv growth inhibitors, H37Rv strain (AID 1626). M. tuberculosis H37Rv growth inhibition; higher % means a stronger effect. inhibition, % at 10 µM, or IC50 in µM where a hit was titrated. 220,000 compounds, 0.95% hits;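 active = confirmed in a dose series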;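 also: bacteria incubated seven days before Alamar blue readout; 0% = bacteria only wells and 100% = bacteria with antibiotic wells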
Arbovirus inh repeat: also measured in Arbovirus inh; calls as there; inhibition, %; measured here: 10K subset replicate screen; many hits read low in the repeat;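 first of two repeat runs on a subset; 0% = infected and 100% = uninfected wells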
The depositor's hits bear a star; . = no result given.

SMILES	Mtb bLac sens	Arbovirus inh	YopH inh	RecA splice inh	Mtb H37Rv	others
O=C(CCS(=O)(=O)c1ccccc1)Nc1cccc(-c2nc3ccccc3s2)c1	7.8	0.8	-5.7	0.2	3.1%
CCn1ncc(/C=N\NC(=O)Cc2ccc([N+](=O)[O-])cc2)c1C	-4.9	2.1	-39.0	-0.9	-3.5%
O=C(CN1CCOCC1)Nc1ccc(Br)cc1C(=O)c1ccccc1	4.2	-2.2	-15.9	-3.5	8.4%
COc1cccc(CNc2ccc3[nH]c(=O)[nH]c3c2)c1OCc1ccc(F)cc1	6.0	.	.	-1.2	.
O=C(CSc1nnc(Cc2csc(Nc3cccc(Cl)c3)n2)o1)N1CCc2ccccc21	3.2	10.4	-3.9	6.3	-3.2%
CCOC(=O)c1c(CN2CCN(C)CC2)oc2ccc(O)cc12	-14.8	0.5	-37.5	0.6	-4.2%
COc1ccc(-c2ccnc3cc(C(=O)O)nn23)cc1	-1.6	-1.3	.	-25.4	-13.1%
O=C(NCc1ccco1)c1ccc2c(c1)OCCO2	-5.6	.	.	-1.7	.
Oc1c(Br)cc(Br)cc1CNc1cnc2ccccc2c1	87.2	.	.	1.8	.
O=C(N/N=C/c1cccc(F)c1)c1c(O)c2c([nH]c1=O)CCCC2	9.6	-2.3	-7.7	0.6	-3.8%
CC(C)NC(=O)CCc1nc2cccnc2n1-c1ccccc1	5.0	.	.	-0.5	.
Brc1ccccc1OCCNCc1ccccc1	2.7	-0.8	.	2.8	9.7%
CCOC(=O)c1[nH]c2ccccc2c1NC(=O)c1ccc(S(=O)(=O)N(C)C)cc1	3.0	-2.1	-24.9	-2.6	.
O=C(NNc1ccc(Cl)cc1)C1CCC1	96.1	.	.	-1.4	76.6%
COc1ccccc1NC(=O)NCCN1C(=O)C2C3C=CC(C3)C2C1=O (centres undefined)	-2.1	3.9	-25.3	-1.5	-7.3%	Arbovirus inh repeat=-0.3
COc1ccccc1CCNC(=O)c1ccc(Br)s1	1.9	.	.	0.2	.
Cc1ccc(C)c(OCc2cc(C(=O)NC3CCN(Cc4ccccc4)CC3)no2)c1	84.5	.	.	2.4	.
Cc1c(NC(=O)c2cc3nc(-c4ccccc4)cc(C)n3n2)c(=O)n(-c2ccccc2)n1C	-4.5	0.7	-15.7	1.9	0.1%
O=C(NCCc1ccccc1)c1cnc2ccccc2n1	6.6	.	.	-0.9	.
CC(OC1=CC(=O)CCC1)C(=O)c1ccccc1 (centres undefined)	-9.3	4.4	-17.1	-5.0	-6.8%
O=C(NCCCN1CCOCC1)c1ccccc1N1C(=O)[C@@H]2Cc3c([nH]c4ccccc34)C(c3ccc(F)cc3)N2C1=O (some centres undefined)	-8.9	.	.	1.7	.
COC(=O)C1=C(C)Nc2nnnn2C1c1ccccc1Cl (centres undefined)	-0.3	-2.9	-31.0	1.7	2.3%
S=c1nc(C2CCCCC2)n(-c2ccccc2)[nH]1	0.8	5.2	.	-0.2	2.8%
COc1ccc(NC(=O)CSc2ccccc2)cn1	0.9	10.4	.	-3.3	-1.7%
CC[n+]1cccc(-c2nc3ccccc3s2)c1	3.9	1.5	.	.	-6.2%
O=C(NC1CCCCC1)N(CCN1CCOCC1)Cc1cc2cc3c(cc2[nH]c1=O)OCCO3	0.4	0.6	-11.8	-2.7	-8.6%
CN(C)c1oc(-c2ccc(OCc3ccccc3)cc2)nc1C#N	98.6	-17.6	-46.7	-0.7	3.3%
O=C(/C=C/c1ccco1)NCC(=O)N/N=C/c1ccccc1[N+](=O)[O-]	3.5	4.8	.	-1.9	-2.8%
CCOC(=O)C1=C(O)C(=O)N(c2ccc(S(N)(=O)=O)cc2)C1c1ccc(Cl)cc1 (centres undefined)	25.7	5.4	-38.2	1.0	-3.2%
CC(/C=C/c1ccccc1)=N/NC(=O)c1cnccn1	3.2	-6.5	-15.9	0.4	4.5%
CCCCn1c(N)c(N(CCOC)C(=O)c2cc(-c3ccc(OC)cc3)nc3ccccc23)c(=O)[nH]c1=O	3.1	.	.	-2.3	.
N#CC12CCCCC1CC1CCCCC1(C#N)N2CCO (centres undefined)	-11.5	11.2	-33.1	0.8	0.6%
O=C(CC1C(=O)N(c2ccccc2)C(=O)N1C1CCCCC1)Nc1ccccc1 (centres undefined)	-1.4	-0.1	-24.0	-0.6	4.0%
Cc1cc(C)cc(NC(=S)N(CCN2CCCCC2)Cc2ccco2)c1	3.1	13.0	.	0.9	3.0%
CC(C)Nc1nc(C#N)nc(NC(C)C)n1	3.1	8.2	-40.4	5.4	-8.1%
O=C(COc1ccccc1)NCC(c1ccco1)N1CCN(c2ccc(F)cc2)CC1 (centres undefined)	-1.1	.	.	2.2	.
Cc1cccc(NC(=O)CN2C(=O)CSC2=O)c1	-3.9	-1.1	.	-3.0	-3.9%
COc1ccc(Nc2nnc(C)c(=O)[nH]2)c(OC)c1	1.4	.	.	-2.1	0.0%
O=C(CCC1CCCCC1)NCCN1C2=NC[C@H](Cc3ccc(O)cc3)N2C[C@H]1Cc1ccc(O)cc1	66.2	-5.8	.	3.4	4.2%
N#Cc1cc2c(nc1SCC(=O)N1CCOCC1)CCCCC2	2.5	1.2	-5.7	0.4	-0.4%

A portion from the list above, as a working copy:
SMILES	Mtb bLac sens	Arbovirus inh	YopH inh	RecA splice inh	Mtb H37Rv	others
O=C(NCCCN1CCOCC1)c1ccccc1N1C(=O)[C@@H]2Cc3c([nH]c4ccccc34)C(c3ccc(F)cc3)N2C1=O (some centres undefined)	-8.9	.	.	1.7	.
COC(=O)C1=C(C)Nc2nnnn2C1c1ccccc1Cl (centres undefined)	-0.3	-2.9	-31.0	1.7	2.3%

Further records
SMILES	Mtb bLac sens	Arbovirus inh	YopH inh	RecA splice inh	Mtb H37Rv	others
COc1ccccc1NC(=O)Cn1cnc2c(cnn2-c2ccccc2)c1=O	3.0	-4.4	-41.5	-1.3	-6.5%
COc1ccc(S(=O)(=O)N2CCOCC2)cc1C(=O)N1CCCCCC1	0.6	.	.	-1.6	.
COc1ccc(Cc2nnc(SCC(=O)Nc3ccc(C)c(C)c3)o2)cc1OC	-0.3	.	.	1.0	.
O=C(NCC1CCCO1)c1ccc(S(=O)(=O)N2CCC(c3nc4ccc(Cl)cc4[nH]3)CC2)cc1 (centres undefined)	1.2	-0.6	-14.8	0.9	4.8%
Cc1cc(NC(=O)Cc2ccccc2)ccc1NC(=O)c1cccs1	1.4	-13.2	.	-0.9	1.7%
CCCn1nnc(NC(=O)c2ccc(-c3cccc(Cl)c3)o2)n1	-2.4	-18.0	-13.9	0.9	0.8%
c1ccc(Nc2nc(-c3ccncc3)nc3ccccc23)cc1	96.0	-1.2	-16.7	-3.6	-6.0%
COc1ccc2c(CCNC(=O)/C=C/c3ccc(OC)c(OC)c3)c[nH]c2c1	6.0	.	.	-2.1	.
COc1ccc(-c2nc3ccccc3nc2-c2ccccc2)cc1	0.4	-3.5	.	.	13.5%
Cc1ccc(C(=O)OCC2OC3OC(C)(C)OC3C2O)cc1 (centres undefined)	-4.1	0.8	-16.0	-0.5	0.4%
COc1ccc(NC(=S)NCc2ccc3c(c2)cc(C)n3C)cc1	-0.3	-3.5	-29.5	-0.3	.
COc1ccc(C(=O)C[n+]2ccc(N(C)C)cc2)cc1	-4.1	.	.	1.7	0.7%
Cc1cc(C(=O)CCl)c(C)n1-c1c(C)n(C)n(-c2ccccc2)c1=O	51.7	-6.5	.	4.4	-0.2%
CCC1CCCCN1CCCNC(=O)CN1C(=O)COc2ccc(S(=O)(=O)N3CCC(C)CC3)cc21 (centres undefined)	-14.2	.	.	-0.4	.
COC(=O)c1ccc(/C=N\n2c(C)nnc2C)cc1	-4.9	-3.8	-36.3	-3.9	-17.9%
O=C(Nc1ccc(NC(=O)c2cccs2)c(Cl)c1)c1cccs1	51.6	.	.	2.1	.
CCCCn1c(N)c(N(CC(C)C)C(=O)c2oc3c(Cl)cccc3c2C)c(=O)[nH]c1=O	74.7	.	.	-2.4	.
CCCn1c(N)c(C(c2ccc(C(=O)OC)cc2)N2CCN(c3ccccc3)CC2)c(=O)[nH]c1=O (centres undefined)	-5.1	-4.5	-16.9	2.3	-0.5%
Cc1ccc(CN2CCN(/N=C/c3cccn3C)CC2)c(C)c1	-1.4	6.9	.	-1.8	-9.2%
Cc1ccc(S(=O)(=O)NC2(C(F)(F)F)NC(=O)N(CCc3ccccc3)C2=O)cc1 (centres undefined)	-2.1	6.9	.	-2.6	0.7%
CC(C)C(NC(=O)c1ccccc1F)C(=O)OCC(=O)c1ccc(F)cc1 (centres undefined)	3.2	1.6	.	-0.2	-2.9%
COc1ccccc1/C=N/NC(=O)CO	-4.4	4.7	.	1.3	1.8%
CCn1c2ccc(Cl)cc2c2nc3ccccc3nc21	7.3	13.4	-2.1	0.7	-1.1%
Cc1ccc(CNC(=O)c2cc3c(=O)n(C)c4ccccc4c3n2C)cc1	-2.8	4.3	-7.5	0.3	-7.4%
Clc1ccc(Oc2nc(N3CCOCC3)nc(N3CCOCC3)n2)c(C2CCCCC2)c1	-7.0	.	-11.6	-0.6	0.5%
Cc1ccc(NC2CCCN(C(=O)c3ccccc3-c3ncc[nH]3)C2)cc1C (centres undefined)	-5.2	.	.	-1.8	.
CC1CC2=C(C(=O)O1)C(c1ccccc1)Nc1ccccc1N2 (centres undefined)	-0.6	-4.0	-8.5	-1.1	2.9%
CCCCCCN(C(=O)CCCCCN1C(=O)NC(c2ccc([N+](=O)[O-])cc2)C(C(=O)OCc2ccccc2)=C1C)C(C(=O)NCCCC)c1ccc(OCC(=O)OC)c(C(=O)OC)c1 (centres undefined)	1.5	.	.	0.0	.
COC(=O)c1[nH]c2ccc(F)cc2c1NC(=O)CCN1CCN(C(=O)c2ccco2)CC1	.	0.7	-32.4	0.7	-7.1%
COC(=O)CSc1ccc(S(=O)(=O)N2CCC(C)CC2)cc1[N+](=O)[O-]	-0.7	3.3	-28.2	0.8	-11.2%
COc1cc(/C=C2\C(=O)N(c3ccc(S(N)(=O)=O)cc3)N=C2C)ccc1OC(=O)c1ccco1	92.7	-5.5	.	92.6*	-9.5%
O=C1c2cccc3cccc(c23)C(=O)N1CCN1CCN(C(=S)Nc2ccc(F)cc2)CC1	9.8	1.2	2.5	-0.4	2.4%
Cc1ccc(-c2c(C(=O)N(C)Cc3ccccc3)oc(=O)c3ccccc23)cc1	19.1	13.8	-12.4	17.9	-0.5%
Cc1sc2ncn(CC(=O)NCc3ccco3)c(=O)c2c1-c1ccc(F)cc1	4.3	-1.9	.	2.9	-6.3%
CCCN1CNC(=S)N(c2ccccc2OC)C1	8.5	2.7	-19.2	-2.1	-6.1%
CC1(C(=O)Nc2cccc3ccccc23)CC1(Br)Br (centres undefined)	91.3	.	.	25.6	-4.0%
COc1ccccc1P(=O)(c1ccccc1)c1ccccc1	-1.8	.	.	-0.1	.
CCC(=O)N(C)CCc1cc2c(c(OC)c1/C=N/NC(=O)c1ccc(Br)cc1)OCO2	3.4	-9.3	-23.3	-1.8	0.3%
COc1cc(/C=N/NC(=O)c2ccncc2)ccc1OC(C)=O	98.6	.	.	-1.1	.
CC(C)CCN1CCN(Cc2c(F)cccc2Cl)CC1CCO (centres undefined)	-6.2	-11.0	.	-2.3	-2.4%
CC(=NC1CCN(Cc2ccccc2)CC1)c1c(O)n(C)c(=O)n(C)c1=O	-12.4	1.8	-3.5	1.2	-1.9%
CC(OC(=O)c1cccc(-n2cnnn2)c1)C(=O)NCc1ccccc1 (centres undefined)	-7.6	.	.	0.6	.
CN(C)CCOCCOc1ccccc1-c1ccccc1	-6.0	-2.3	-50.3	-5.6	-3.0%
O=C(COC(=O)CCc1ccc(S(=O)(=O)N2CCOCC2)cc1)NC1CCCCCC1	3.6	6.7	-11.4	-2.6	-2.9%
CCOC(=O)CN(C)C(=O)CCc1nnc(-c2ccc(-c3ccccc3)cc2)o1	4.8	.	.	0.5	.
N=c1c(C(=O)NC2CCCC2)cc2c(=O)n3ccccc3nc2n1C1CCCCC1	-12.7	.	.	-384.0	.
CC(C)CC(c1nnnn1CC1CCCO1)N1CCN(Cc2ccc3c(c2)OCO3)CC1 (centres undefined)	-9.8	9.6	-1.1	1.3	0.2%

Reprinted at random: 7 records from the list
SMILES	Mtb bLac sens	Arbovirus inh	YopH inh	RecA splice inh	Mtb H37Rv	others
N=c1c(C(=O)NC2CCCC2)cc2c(=O)n3ccccc3nc2n1C1CCCCC1	-12.7	.	.	-384.0	.
O=C(COC(=O)CCc1ccc(S(=O)(=O)N2CCOCC2)cc1)NC1CCCCCC1	3.6	6.7	-11.4	-2.6	-2.9%
CC(C)CC(c1nnnn1CC1CCCO1)N1CCN(Cc2ccc3c(c2)OCO3)CC1 (centres undefined)	-9.8	9.6	-1.1	1.3	0.2%
CC(=NC1CCN(Cc2ccccc2)CC1)c1c(O)n(C)c(=O)n(C)c1=O	-12.4	1.8	-3.5	1.2	-1.9%
CN(C)CCOCCOc1ccccc1-c1ccccc1	-6.0	-2.3	-50.3	-5.6	-3.0%
CCOC(=O)CN(C)C(=O)CCc1nnc(-c2ccc(-c3ccccc3)cc2)o1	4.8	.	.	0.5	.
CC(OC(=O)c1cccc(-n2cnnn2)c1)C(=O)NCc1ccccc1 (centres undefined)	-7.6	.	.	0.6	.

Only part of the results is shown; rates above refer to the full screens.
